Source: PubChem (Broad Institute)
YB-1 expr inh = inhibitors of YB-1 gene expression, primary screen, cell-based, fluorescence. U2OS, qRT-PCR YB-1 vs CDIP delta delta Cp, 16 h; active compounds read high; zero = DMSO, each unit about twofold. delta delta Cp (YB-1 minus CDIP) (concentration not given with the values). 0.37% of 30,000 active. AID 434959, 2010;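 active = delta delta Cp rounded down to an integer at or above 3, about 3 SD of DMSO wells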;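 note: higher means less YB-1 transcript or more CDIP transcript relative to DMSO; stock transfer was 100 nL into about 100 µL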
Hedgehog inh = Hedgehog pathway signaling inhibitors, primary screen, luminescence, Shh-LIGHT2 cells, Gli-luciferase; Shh-LIGHT2 Gli-luciferase reporter, 30 h; AID 2313, 2010; 2.1% of 22,000 active; inhibition, % (concentration not given with the values);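 active = replicate mean of 65% or more; inconclusive = mean lower but half the replicates past it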;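 note: pathway switched on by Shh-conditioned medium diluted 1 in 25 in low serum; 100 nL library stock added to about 40 µL; 0% = median of neutral wells and 100% = positive control level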
PD-1 reversal = activators reversing PD-1 mediated T-cell inhibition, primary screen, luminescence, primary human CD4 T cells, PD-L1 beads. 29,000 tested, under 10 active. AID 2316, 2010. activation, % (concentration not given with the values). CellTiter-Glo 96 h;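 active = replicate mean of 50% or more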;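 note: 0% = median vehicle wells and 100% = positive control; 100 nL library stock added to about 50 µL; numbers are from one replicate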
MITF inhib = inhibitors of MITF, primary screen, MITF inhibitor project, cell-based, luminescence; inhibition, % (no concentration beside the values); TRPM1 promoter luciferase, 24 h; 0.28% of 37,000 active;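 active = most replicates at 85% or more, or half of them and the mean; inconclusive = half reach 85% but not the mean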;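 note: human melanocyte line stably carrying TRPM1 promoter luciferase reporter; 0% = vehicle wells and 100% = a positive control; the first replicate is given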
Active calls of the source: *; ? = inconclusive; . = not tested or not shown.

SMILES | YB-1 expr inh | Hedgehog inh | PD-1 reversal | MITF inhib
C[C@H]1CN([C@@H](C)CO)C(=O)c2cccc(NC(=O)Nc3ccc(F)cc3)c2O[C@H]1CN(C)Cc1ccc(C(=O)O)cc1 | 0.19 | 16 | 2.4 | -11
COc1ccc(OC)c(NC(=O)C2=C(C)NC(=O)NC2c2cccc(OC)c2OC)c1 (stereo not given) | . | . | -0.9 | -7
C[C@H]1CN([C@@H](C)CO)C(=O)c2cccc(N(C)C)c2O[C@@H]1CN(C)S(=O)(=O)c1cccs1 | -0.059 | -13 | -0.6 | 4
C[C@H]1CN([C@@H](C)CO)C(=O)c2cc(NS(C)(=O)=O)ccc2O[C@H]1CN(C)Cc1ccc(-c2ccccc2)cc1 | -0.15 | 9 | -1.0 | 12
O=C(CC(c1ccccc1)c1ccccc1)Nc1ccc(Cl)cc1 | 0.039 | . | 0.4 | -11
CCC(Oc1ccccc1)C(=O)Nc1cc2oc3ccccc3c2cc1OC (stereo not given) | . | . | 0.5 | 1
C[C@H]1CN([C@@H](C)CO)C(=O)c2cccc(NS(=O)(=O)c3ccccc3)c2O[C@H]1CN(C)Cc1ccc(Oc2ccccc2)cc1 | 1 | 20 | -0.4 | -6
C[C@@H]1CCCCO[C@H](CN(C)S(C)(=O)=O)[C@@H](C)CN([C@H](C)CO)C(=O)c2cc(NC(=O)Nc3cccc4ccccc34)ccc2O1 | 0.049 | . | 0.6 | -3
C[C@H]1CN([C@@H](C)CO)C(=O)c2cc(NS(=O)(=O)c3cn(C)cn3)ccc2O[C@H]1CN(C)CC1CCCCC1 | -0.14 | . | -0.1 | -1
COc1ccc(-c2nn(C)c(=O)c3ccccc23)cc1CNS(=O)(=O)c1ccc(Cl)cc1 | . | . | -1.5 | 2
Cc1cc2nn(-c3cccc4ccccc34)nc2cc1NC(=O)COc1ccc([N+](=O)[O-])cc1 | . | . | -0.2 | 29
C[C@@H]1CN([C@@H](C)CO)C(=O)c2cc(NS(=O)(=O)c3ccc(F)cc3)ccc2O[C@H]1CN(C)C(=O)Nc1ccc2c(c1)OCO2 | -0.079 | . | -1.4 | 3
Cc1noc(C)c1NC(=O)Nc1ccc2c(c1)C(=O)N([C@@H](C)CO)C[C@H](C)[C@H](CN(C)S(C)(=O)=O)O2 | -0.011 | . | 1.4 | 3
COC(=O)c1ccc(NC(=O)CSc2nnc(-c3cccc(N)c3)n2C)cc1 | . | . | 1.4 | 0
CNC[C@@H]1Oc2ccc(NC(=O)C3CCCCC3)cc2CC(=O)N([C@H](C)CO)C[C@@H]1C | -0.27 | 2 | -0.1 | -2
C[C@H]1CN([C@@H](C)CO)C(=O)c2cc(NC(=O)NC3CCCCC3)ccc2O[C@@H]1CN(C)C(=O)Nc1ccc2c(c1)OCO2 | -0.3 | . | 0.9 | 10
C[C@H](CO)N1C[C@H](C)[C@@H](CN(C)C)Oc2ccc(NC(=O)C3CCCCC3)cc2C1=O | 0.048 | 16 | -1.0 | -8
COc1nccc(C(F)(F)F)c1C(=O)NC(=O)Nc1c(C)cccc1C | -0.81 | -28 | 0.1 | -15
O=C(Oc1ccccc1N(C(=O)c1ccccc1)S(=O)(=O)c1ccccc1)c1ccccc1 | 0.3 | -10 | -0.7 | -17
C[C@@H]1CN([C@@H](C)CO)C(=O)c2cc(NS(=O)(=O)c3cccs3)ccc2O[C@H]1CN(C)Cc1ccc(C(=O)O)cc1 | -0.27 | -20 | 1.3 | 0
COc1ccc(CN(C)C[C@@H]2OCCCC[C@@H](C)Oc3ccc(NC(=O)CCCN(C)C)cc3C(=O)N([C@H](C)CO)C[C@@H]2C)cc1 | 0.58 | 29 | 0.9 | 5
CCOC(=O)c1ccc(NC(=O)c2ccc(C(C)(C)C)cc2)cc1 | -0.27 | -26 | -0.2 | 26
CN(C/C=C/c1ccccc1)Cc1cccc2ccccc12 | -0.27 | -24 | . | -6
C[C@@H]1CCCCO[C@H](CN(C)S(C)(=O)=O)[C@@H](C)CN([C@H](C)CO)C(=O)c2cc(NS(C)(=O)=O)ccc2O1 | -0.12 | ? | . | -3
C[C@@H]1CN([C@@H](C)CO)C(=O)Cc2cc(NS(=O)(=O)c3ccc(F)cc3)ccc2O[C@@H]1CN(C)Cc1ccc2c(c1)OCO2 | 0.33 | 34 | 0.1 | -10

Next compounds.
SMILES | YB-1 expr inh | Hedgehog inh | PD-1 reversal | MITF inhib
C[C@@H]1CN([C@@H](C)CO)C(=O)c2cc(NC(=O)Nc3ccc(F)cc3)ccc2O[C@@H]1CN(C)S(=O)(=O)c1cccs1 | 0.21 | -4 | 0.2 | -10
COc1ccc(NC(=O)N(C)C[C@@H]2Oc3ccc(NS(=O)(=O)c4cccs4)cc3CC(=O)N([C@@H](C)CO)C[C@@H]2C)cc1 | -0.23 | . | 1.2 | 3
C=C(CC)C(=O)c1ccc(OCC(=O)O)c(Cl)c1Cl | -0.21 | 12 | . | -3
C[C@H]1CN([C@@H](C)CO)C(=O)Cc2cc(NC(=O)CCC(F)(F)F)ccc2O[C@H]1CN(C)S(=O)(=O)c1cccs1 | 0.0005 | 16 | 0.9 | -11
C[C@H](CO)N1C[C@H](C)[C@H](CN(C)S(=O)(=O)c2cn(C)cn2)Oc2ccc(NS(C)(=O)=O)cc2C1=O | -0.28 | . | . | -2
CCC1(C)Cc2c(sc3nnn(CC(=O)Nc4ccc(OC)cc4OC)c(=O)c23)CO1 (stereo not given) | . | . | -1.5 | 10
CC(Oc1cccc(Br)c1)C(=O)NCc1ccco1 (stereo not given) | . | . | -0.9 | -2
C[C@@H]1CN([C@@H](C)CO)C(=O)c2cc(NS(=O)(=O)c3cccs3)ccc2O[C@H]1CN(C)Cc1ccc2c(c1)OCO2 | -0.2 | . | 0.1 | 2
COc1ccc(S(=O)(=O)N(C)C[C@@H]2Oc3c(NS(C)(=O)=O)cccc3C(=O)N([C@@H](C)CO)C[C@@H]2C)cc1 | -0.29 | 30 | . | -3
Cc1cc(C(=O)Oc2c(C)cc(C(=O)O)c(O)c2C)c(O)c(C)c1O | -0.66 | 2 | 0.6 | 5
CCc1ccc(C(=O)Nc2ccc(S(=O)(=O)Nc3nc(C)cc(C)n3)cc2)o1 | . | . | 0.7 | -2
COc1ccc(S(=O)(=O)N(C)C[C@H]2Oc3ccc(NC(=O)Nc4ccc(F)cc4)cc3CC(=O)N([C@@H](C)CO)C[C@@H]2C)cc1 | 0.0049 | -50 | -0.1 | -2
Cc1ccc(S(=O)(=O)Nc2cccc3c2O[C@H](CN(C)C)[C@@H](C)CN([C@@H](C)CO)C3=O)cc1 | 0.0098 | -13 | 0.9 | 0
COc1ccc(NC(=O)Nc2cccc3c2O[C@@H](CN(C)Cc2ccc(Oc4ccccc4)cc2)[C@@H](C)CN([C@@H](C)CO)C3=O)cc1 | -0.071 | 5 | -1.7 | 4
C[C@@H]1CN([C@@H](C)CO)C(=O)c2cc(NC(=O)Nc3ccc(F)cc3)ccc2O[C@@H]1CN(C)S(C)(=O)=O | -0.38 | -5 | 0.6 | 2
Cc1cc(Cl)ccc1OC(C)C(=O)Nc1ccc(C(=O)Nc2ccccc2C(=O)O)cc1 (stereo not given) | . | . | 1.1 | 25
CCOC(=O)c1nnn2c3ccccc3c(=O)n(C)c12 | 0.42 | -16 | 0.2 | 1
C[C@H](CO)N1C[C@H](C)[C@@H](CN(C)CC2CCCCC2)Oc2ccc(NC(=O)CCCN(C)C)cc2C1=O | 0.27 | 11 | . | 2
C[C@@H]1CN([C@H](C)CO)C(=O)c2cccc(NC(=O)c3ccc(-c4nccs4)cc3)c2O[C@H]1CN(C)S(=O)(=O)c1cccs1 | 0.099 | 49 | -0.3 | -4
C[C@H](CO)N1C[C@H](C)[C@H](CN(C)S(=O)(=O)c2ccc(Cl)cc2)Oc2ccc(NS(=O)(=O)c3cccs3)cc2CC1=O | -0.069 | 6 | -1.8 | -9
C[C@H]1CN([C@@H](C)CO)C(=O)c2cc(NC(=O)C3CCCCC3)ccc2O[C@@H]1CN(C)Cc1ccc(C(=O)O)cc1 | 0.11 | -11 | 2.0 | -6
Cc1cc(OCC(=O)Nc2cccc3ncccc23)ccc1Cl | . | . | 1.0 | 2
Cn1nc(-c2ccc(S(=O)(=O)N3CCCN(C(=O)OC(C)(C)C)CC3)s2)cc1C(F)(F)F | -0.69 | . | 0.3 | 7
C[C@H](CO)N1C[C@H](C)[C@@H](CN(C)S(=O)(=O)c2ccc(Cl)cc2)Oc2ccc(NS(=O)(=O)c3ccc(Cl)cc3)cc2C1=O | -0.16 | . | -2.4 | 8
CC(=O)N1CCN(Cc2nc3cc(NC(=O)Cn4nc(C)c5ccccc5c4=O)ccc3n2C)CC1 | . | . | 0.6 | -2

One compound at a time, from the list above. Screens in order: YB-1 expr inh	Hedgehog inh	PD-1 reversal	MITF inhib
Shown for C[C@H]1CN([C@@H](C)CO)C(=O)c2cc(NC(=O)NC3CCCCC3)ccc2O[C@@H]1CN(C)C(=O)Nc1ccc2c(c1)OCO2 : -0.3	.	0.9	10
Shown for Cc1cc(Cl)ccc1OC(C)C(=O)Nc1ccc(C(=O)Nc2ccccc2C(=O)O)cc1 (stereo not given) : .	.	1.1	25
Shown for O=C(Oc1ccccc1N(C(=O)c1ccccc1)S(=O)(=O)c1ccccc1)c1ccccc1 : 0.3	-10	-0.7	-17
Shown for COc1ccc(-c2nn(C)c(=O)c3ccccc23)cc1CNS(=O)(=O)c1ccc(Cl)cc1 : .	.	-1.5	2
Shown for CCC(Oc1ccccc1)C(=O)Nc1cc2oc3ccccc3c2cc1OC (stereo not given) : .	.	0.5	1

Back to the main list, repeating the 3 entries before the break.
SMILES | YB-1 expr inh | Hedgehog inh | PD-1 reversal | MITF inhib
Cn1nc(-c2ccc(S(=O)(=O)N3CCCN(C(=O)OC(C)(C)C)CC3)s2)cc1C(F)(F)F | -0.69 | . | 0.3 | 7
C[C@H](CO)N1C[C@H](C)[C@@H](CN(C)S(=O)(=O)c2ccc(Cl)cc2)Oc2ccc(NS(=O)(=O)c3ccc(Cl)cc3)cc2C1=O | -0.16 | . | -2.4 | 8
CC(=O)N1CCN(Cc2nc3cc(NC(=O)Cn4nc(C)c5ccccc5c4=O)ccc3n2C)CC1 | . | . | 0.6 | -2
C[C@@H]1CN([C@H](C)CO)C(=O)c2cccc(NC(=O)Nc3ccc(F)cc3)c2O[C@@H]1CN(C)CC1CCCCC1 | -0.046 | 8 | -0.7 | -36
C[C@H]1CN([C@@H](C)CO)C(=O)Cc2cc(NC(=O)Cc3cn(C)c4ccccc34)ccc2O[C@@H]1CN(C)C(=O)Nc1ccc(F)cc1 | 0.069 | 8 | . | 4
Cc1nn2c(-c3cccc(NC(=O)CSc4nc5ccccc5o4)c3)nnc2c2ccccc12 | . | . | 2.6 | -24
C[C@@H]1CN([C@H](C)CO)C(=O)Cc2cc(NC(=O)C3CC3)ccc2O[C@@H]1CN(C)C(=O)Nc1ccc(F)cc1 | -0.49 | -16 | -0.2 | -3
C[C@H]1CN([C@@H](C)CO)C(=O)Cc2cc(NC(=O)Nc3ccc(F)cc3)ccc2O[C@@H]1CN(C)Cc1ccncc1 | 0.12 | 3 | 1.1 | 1
CSc1ccccc1NC(=O)C(C)NS(=O)(=O)c1ccccc1 (stereo not given) | . | . | 0.1 | -7
C[C@H](CO)N1C[C@H](C)[C@@H](CN(C)CC2CCCCC2)Oc2ccc(NC(=O)CCC(F)(F)F)cc2C1=O | -0.31 | -22 | . | -2
C[C@@H]1CN([C@@H](C)CO)C(=O)c2cccc(NC(=O)C3CCCCC3)c2O[C@H]1CN(C)Cc1ccc(-c2ccccc2)cc1 | -0.07 | 12 | -3.8 | 61
COc1ccc(S(=O)(=O)N(C)CC(=O)Nc2cc(C(F)(F)F)ccc2Cl)cc1 | . | . | 1.3 | 9
COC(=O)C[C@H]1[C@]2(C)C3=C(C)[C@H](c4ccoc4)C[C@H]3O[C@@H]2[C@H](OC(C)=O)C2[C@](C)(C(=O)OC)C=CC(=O)[C@@]21C (stereo not given in full) | 0.081 | 0 | -1.7 | -7
C[C@@H]1CN([C@@H](C)CO)C(=O)c2cc(NC(=O)CCN3CCOCC3)ccc2O[C@H]1CN(C)S(=O)(=O)c1cn(C)cn1 | 0.048 | -27 | 0.9 | 0
C[C@H](CO)N1C[C@H](C)[C@@H](CN(C)S(=O)(=O)c2cccs2)Oc2ccc(NC(=O)Nc3cccc4ccccc34)cc2C1=O | 0.3 | . | -1.3 | 11
CC(C)(C)c1ccc(OCC(=O)NCc2ccco2)c(Br)c1 | . | . | -6.6 | -114
Cc1ccc(S(=O)(=O)N(C)C[C@H]2Oc3ccc(NC(=O)c4ccncc4)cc3CC(=O)N([C@@H](C)CO)C[C@H]2C)cc1 | 0.084 | 30 | -2.0 | -4
C[C@@H]1CN([C@H](C)CO)C(=O)Cc2cc(N(C)C)ccc2O[C@@H]1CN(C)Cc1ccc(C(F)(F)F)cc1 | -0.29 | -4 | . | -18
COC(=O)c1ccc(OCC(O)Cn2c(C)nc3ccccc32)cc1 (stereo not given) | . | . | -1.6 | 71

A portion of the library; count on the stated rates, not on these rows.
